D2 potentiator – positive allosteric modulators of human D2 dopamine receptor; DiscoveRx D2 beta-arrestin cells, luminescence, 90 min; 100% = 57 uM dopamine signal; potentiation, % (no concentration beside the values); actives 0.23% (n = 360,000); active = potentiation of 50% or more; inconclusive = 30% to 50%; inactive = 30% or less;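 further: compound concentration not given in the record; tested on top of an EC20 dose of dopamine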
Target sequence (P14416 whole entry, looked up): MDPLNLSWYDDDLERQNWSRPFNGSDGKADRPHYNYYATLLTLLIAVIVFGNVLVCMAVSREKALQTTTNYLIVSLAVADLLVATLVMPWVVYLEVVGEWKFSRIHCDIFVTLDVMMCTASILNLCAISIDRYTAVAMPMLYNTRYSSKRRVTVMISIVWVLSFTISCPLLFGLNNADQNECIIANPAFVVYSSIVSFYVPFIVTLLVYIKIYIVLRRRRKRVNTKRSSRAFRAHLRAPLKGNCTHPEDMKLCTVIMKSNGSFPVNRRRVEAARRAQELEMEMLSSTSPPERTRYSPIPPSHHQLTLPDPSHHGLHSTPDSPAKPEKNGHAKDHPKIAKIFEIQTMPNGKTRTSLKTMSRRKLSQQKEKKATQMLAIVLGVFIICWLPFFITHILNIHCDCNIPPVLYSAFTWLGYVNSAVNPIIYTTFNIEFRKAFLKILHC
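D2 cells co-treated with compound plus 50 nM dopamine (EC20) for 90 min at 37 deg C to detect potentiation. Beta-arrestin recruitment was read as enzyme-fragment luminescence after 1 h at ambient temperature. Full response was set by 57 uM dopamine.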
Six1-Eya2 blk – inhibitors of human Six1/Eya2 interaction; activity change, % (test concentration not listed); actives 0.56% (n = 360,000); AID 651725; Q15475+O00167; AlphaScreen GST-Six1/His-Eya2 binding, biochemical; active compounds read low; control for the full effect not named in the record; in the data active = activity change below about -65%; inconclusive = about -30% to -65%; inactive = above about -30%; further: on the % scale 0 is the no-effect control and ±100 the full control effect
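Homogeneous AlphaScreen proximity assay pairing GST-Six1 with His-tagged Eya2 (added as 5X mix: 250 nM and 500 nM) in 50 mM Tris pH 8.0, 300 mM NaCl, 1 mM TCEP. Glutathione donor and nickel acceptor beads; 1 h, 37 °C, dark.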
TRPV1 PAM – enhances activation of the human vanilloid receptor TRPV1; TRPV1-expressing cells, Fluo-8 calcium influx, capsaicin EC20 potentiation; host cell line not named in the record; control for the full effect not named in the record; potentiation, % at 8.33 µM; actives 0.02% (n = 320,000); AID 540277; active means potentiation above 80%; inconclusive means 30% to 80%; inactive means below 30%; further: 0% is about no effect
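Fluo-8 calcium influx in TRPV1-expressing cells, kinetic read (ex 480/em 520 nm). Compound added and read 3 min for agonist activity, followed by capsaicin at EC20 final and 2 min further read for enhancement.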
TRPML1 inh – human mucolipin-1 channel inhibition; Q9GZU1; TRPML1-inducible cells, Ca2+ dye fluorescence, FDSS; active compounds read low; inhibition of EC80 agonist-evoked calcium signal; activity change, negative = inhibition, % (concentration not given with the values); actives 0.02% (n = 390,000); AID 624415; in the data active means activity change below about -50%; inconclusive means about -30% to -50%; inactive means above about -30%;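 further: stimulus is agonist 54-4 at its EC80 concentration; on the % scale 0 is the no-effect control and ±100 the full control effect; the text of the record puts the active cut at -80%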
Target sequence (Q9GZU1 whole entry, looked up): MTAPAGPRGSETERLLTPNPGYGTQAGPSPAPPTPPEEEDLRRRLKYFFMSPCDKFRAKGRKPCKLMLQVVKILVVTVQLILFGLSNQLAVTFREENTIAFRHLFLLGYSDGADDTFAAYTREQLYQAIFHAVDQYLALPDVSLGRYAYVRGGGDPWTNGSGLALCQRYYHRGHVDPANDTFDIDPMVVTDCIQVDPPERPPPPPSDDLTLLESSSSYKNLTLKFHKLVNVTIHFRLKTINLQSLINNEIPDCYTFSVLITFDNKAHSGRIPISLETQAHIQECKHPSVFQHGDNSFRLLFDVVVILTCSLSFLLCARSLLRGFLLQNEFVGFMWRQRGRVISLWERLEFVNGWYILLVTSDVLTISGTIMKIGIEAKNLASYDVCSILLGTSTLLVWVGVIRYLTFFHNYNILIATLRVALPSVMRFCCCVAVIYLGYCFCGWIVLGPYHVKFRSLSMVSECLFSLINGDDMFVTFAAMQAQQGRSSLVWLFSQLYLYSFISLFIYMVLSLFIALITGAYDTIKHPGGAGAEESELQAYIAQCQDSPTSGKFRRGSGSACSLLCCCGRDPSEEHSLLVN
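Tet-induced TRPML1-DL cells loaded with Ca8 no-wash calcium dye were read kinetically on FDSS. Compound addition was followed by EC80 agonist 54-4 (4 uM final); inhibition was read over 110 s.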
TRPML1 ag – activates the human TRPML1 channel | Q9GZU1 | TRPML1-expressing cells, Ca2+ dye fluorescence, FDSS; host cell line not named in the record; reference of the full effect not given here | activation, % (no concentration beside the values) | actives 0.12% (n = 410,000); in the data active = activation above about 50%; inconclusive = about 30% to 50%; inactive = below about 30%; further: 0% is about no effect; the text of the record puts the active cut at 80%
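TRPML1-DL cells, Tet-induced overnight (~16 h, 37 degrees C), loaded 45-90 min at room temperature with Ca8 no-wash calcium dye plus quencher. FDSS fluorescence: 10 s baseline, compound pin-transfer, 110 s agonist read, then EC80 54-4 (4uM final) and 110 s antagonist read.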
CtBP-E1A blk – CtBP/E1A binding inhibition; AlphaScreen GST-E1A/His-CtBP binding, 1536-well; active compounds read low; control for the full effect not named in the record; actives 0.49% (n = 340,000); activity change, % (test concentration not listed); in the data active means activity change below about -65%; inconclusive means about -30% to -65%; inactive means above about -30%; further: on the % scale 0 is the no-effect control and ±100 the full control effect
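AlphaScreen with 125 nM GST-E1A and 125 nM His-CtBP (5X stocks) in Tris pH 8.0, 300 mM NaCl, BSA, Tween 20, TCEP. Compounds preincubated 2 h at 37 deg C, then glutathione donor/nickel acceptor beads added for 1 h at 37 deg C in dark.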
An asterisk follows results filed as active; ? = inconclusive; nt = no result given.

SMILES | D2 potentiator | Six1-Eya2 blk | TRPV1 PAM | TRPML1 inh | TRPML1 ag | CtBP-E1A blk
COc1ccc(CCn2c(-c3ccncc3)n[nH]c2=S)cc1OC | -15 | 2 | 1 | 15 | 0.0 | -2
Cc1ccc2c(c1)NC(=O)C(CC(=O)NCCCN1CCc3ccccc3C1)O2 (stereo not drawn) | -10 | -4 | 4 | 24 | -0.3 | 0
O=C(COc1ccc(F)cc1)NN1C(=O)CSC1=S | -11 | 1 | -1 | 10 | 4.4 | 22
O=C(CCSCc1ccccc1F)N1CCN(c2ccccn2)CC1 | -24 | -7 | 14 | -4 | -0.2 | 7
O=C(NCC1(c2ccccc2)CCCC1)c1ccccc1 | -5 | 3 | 4 | 9 | 1.4 | nt
O=C(Cc1cccs1)NCCCc1ccccc1 | 13 | 1 | 10 | 32 | 0.2 | 10
CCOC(=O)/C(=N\Nc1ccc(Br)cc1)N1CCN(c2ccccc2OC)CC1 | -11 | -23 | -7 | 53 | 1.5 | -12
CCOc1ccccc1N(CC(=O)NCC1CCCO1)C(=O)CCC(=O)Nc1nccs1 (stereo not drawn) | 19 | 15 | -10 | 17 | 1.0 | -6
O=C(Nc1cccc(O)c1)c1cc(-c2ccco2)on1 | 6 | -3 | -12 | -14 | 1.3 | -5
COc1ccc(F)cc1S(=O)(=O)NCc1cc(=O)n(C)c(=O)n1C | -4 | 5 | 18 | -4 | -0.5 | 7
O=C(NCc1cccc(Cl)c1)C1CCC(=O)N(CCCN2CCOCC2)C1 (stereo not drawn) | -8 | 8 | 19 | -9 | 0.2 | 1
CCCC1(CC)C(=O)NC(=O)N=C1N (stereo not drawn) | -3 | 6 | nt | -8 | -0.3 | 4
COc1ccc(C2=NOC(C(=O)Nc3ccc(C)cc3)C2)cc1OC (stereo not drawn) | -15 | -4 | -19 | 2 | -0.4 | 3
N#Cc1c(-c2ccco2)cc(-c2ccccn2)nc1N | -7 | ? | 7 | -7 | 1.8 | ?
CC1(C(=O)NCC(F)(F)F)CCN1C(=O)Cc1ccc(-c2ccccc2)cc1 (stereo not drawn) | -2 | 9 | nt | nt | -0.7 | 8
CC1=NN(c2nc(-c3ccc(C)cc3)cs2)C(=O)C1N=Nc1ccc2ccccc2c1 (stereo not drawn) | -12 | -20 | 11 | 16 | 0.0 | -12
Cc1cc(C)n(C(=O)c2cc3c(s2)CCCC3)n1 | -20 | 36 | 2 | -10 | -0.7 | 48
CCc1cc(/C(Cc2csc(C)n2)=N/O)c(O)cc1O | -3 | -12 | -12 | -3 | -0.3 | -7
O=C(OCC#CCSc1nnc(-c2ccncc2)o1)c1sc2ccccc2c1Cl | -8 | 4 | -2 | -4 | -0.2 | 4
CCOC(=O)c1sc(N2C(=O)C(O)=C(C(=O)c3ccco3)C2c2ccc(C)o2)nc1C (stereo not drawn) | 7 | 13 | -6 | 17 | 2.2 | -4
Cc1ccc(NC(=O)C2(C)CCN2CCc2ccccc2)cc1O (stereo not drawn) | -5 | 22 | nt | nt | -1.0 | 0
Cc1cccnc1NC(=O)C1CCN(S(=O)(=O)c2cccs2)CC1 | 3 | -1 | 7 | 6 | -0.7 | 3
COc1cc2cc(Oc3ccc4ccc(=O)oc4c3)c(=O)oc2cc1O | -26 | 1 | 11 | nt | nt | 1
CN(C(=O)CSc1nc2ccccc2n1CCc1ccccc1)C1CCS(=O)(=O)C1 (stereo not drawn) | -17 | 13 | -10 | 15 | 0.8 | 6

Single records, as listed above:
Listed for `CC1(C(=O)NCC(F)(F)F)CCN1C(=O)Cc1ccc(-c2ccccc2)cc1` (stereo not drawn) → D2 potentiator: -2; Six1-Eya2 blk: 9; TRPV1 PAM: nt; TRPML1 inh: nt; TRPML1 ag: -0.7; CtBP-E1A blk: 8
Listed for `CN(C(=O)CSc1nc2ccccc2n1CCc1ccccc1)C1CCS(=O)(=O)C1` (stereo not drawn) → D2 potentiator: -17; Six1-Eya2 blk: 13; TRPV1 PAM: -10; TRPML1 inh: 15; TRPML1 ag: 0.8; CtBP-E1A blk: 6

Going on with the list.
SMILES | D2 potentiator | Six1-Eya2 blk | TRPV1 PAM | TRPML1 inh | TRPML1 ag | CtBP-E1A blk
CCCOC(=O)c1c(NC(=O)CCCn2nc([N+](=O)[O-])c(Cl)c2C)sc(C(=O)OC)c1C | -9 | -16 | 8 | -17 | -0.6 | -1
COc1cc(Cl)c(C)cc1NC(=O)CNC(=O)Cn1cnc2ccccc2c1=O | -10 | -1 | -2 | 8 | 0.4 | -1
CCCCCN(C(=O)COC(=O)Cc1c(C)nc2ccccc2c1C)c1c(N)n(CCCC)c(=O)[nH]c1=O | -1 | 0 | 23 | 6 | 0.4 | 13
C[C@H](CO)N1C[C@H](C)[C@@H](CN(C)S(=O)(=O)c2ccccc2)Oc2ccc(NS(=O)(=O)c3ccccc3)cc2C1=O | 0 | -1 | nt | 20 | -0.1 | 0
O=C(O)CNC(=O)C12CC3CC(CC(Cl)(C3)C1)C2 | -6 | 12 | 1 | -16 | 0.8 | nt
COCCN1C(=O)CCC1(C)c1nnnn1-c1c(C)cccc1C (stereo not drawn) | nt | 6 | nt | nt | -0.2 | -17
CCOC(=O)C1CCN(C(=O)CN2C(=O)COc3ccc(C(C)(C)C)cc32)CC1 | -11 | 2 | -5 | 7 | 1.0 | nt
CCOc1ccc(NC(=O)C2C(c3ccccc3)C2(Cl)Cl)cc1 (stereo not drawn) | -7 | 3 | -6 | 16 | 1.6 | 8
CCn1c(O)c(/C=N/n2cnnc2)sc1=S | -10 | 0 | -2 | 10 | 4.0 | -10
CCCN1CCN(CC(O)COC(c2ccc(OC)cc2)c2ccc(OC)cc2)CC1 (stereo not drawn) | -12 | 22 | 23 | 7 | -0.7 | 17
CCN(CC)C1CC(=O)N(c2ccc(Br)cc2)C1=O (stereo not drawn) | -10 | 5 | -2 | 42 | -0.2 | 7
COc1ccc(CNC(=O)C2CC(c3cccc(OC)c3)=NO2)cc1 (stereo not drawn) | -5 | 1 | 24 | 0 | 2.2 | 3
Cc1cccc(C)c1NC(=O)N1CCCC1C(=O)Nc1ccc(-n2cnnn2)cc1 (stereo not drawn) | 3 | 5 | 3 | 14 | 0.4 | 7
Cc1ccc(C(NC(=O)C2CCN(CCOc3ccc(Cl)cc3)CC2)c2ccccn2)cc1 (stereo not drawn) | -13 | -14 | nt | nt | -0.6 | -7
CCC(CO)Oc1cc(NCc2ccc(C(C)(C)C)cc2)c2ncn(C(C)C)c2c1 (stereo not drawn) | -9 | -18 | nt | 0 | 1.8 | -17
COCc1c(C(=O)N/N=C(/C)c2ccc(OCc3ccccc3)cc2)nnn1-c1nonc1N | -6 | 4 | -17 | 18 | -1.2 | 1
O=C(Nc1cccc(C(=O)O)c1)/C(=C/c1ccc2c(c1)OCO2)NC(=O)c1cccc(Br)c1 | -4 | 6 | -8 | 8 | -0.7 | nt
Cn1c(CCN2CCCC2)nc2cc(NS(=O)(=O)c3ccc(F)cc3)ccc21 | -42 | -3 | nt | 17 | -0.7 | -3
C(=Nc1ccccc1)c1ccc[nH]1 | -6 | -5 | nt | 8 | 1.3 | -1
O=C(Nc1ccc(N2CCOCC2)cc1)c1cnccn1 | 2 | -4 | 6 | -2 | 0.4 | 4
CCCCCn1c(-c2ccco2)nc2nc3ccccc3nc21 | 19 | 8 | -2 | 9 | -0.8 | 8
O=C(O)c1ccc(-n2c(=O)c3ccccc3c3ccccc3c2=O)cc1 | 2 | ? | -3 | -9 | -0.6 | 0
O=C(Nc1ccccc1O)c1ccccc1O | -8 | -3 | 2 | -16 | -0.4 | 0
CC1CC(C)CN(CCC(=O)Nc2cccc(Cl)c2)C1 (stereo not drawn) | -22 | -1 | 5 | 38 | 2.9 | 10
Cc1nn(Cc2ccccc2)c(C)c1NC(=O)CCC(=O)O | 8 | -2 | -6 | -6 | 0.5 | -2
COC(=O)c1c(C)[nH]c(C(=O)/C=C/c2ccc(Cl)cc2)c1C | -3 | -2 | -9 | -7 | -0.1 | 0
OC(CNCc1ccc2c(c1)OCO2)COc1ccc(F)cc1 (stereo not drawn) | -26 | 0 | ? | -6 | -0.5 | nt
Cc1ccc(S(=O)(=O)N(CC(=O)Nc2ccccc2)C(=O)N2CCN(C)CC2)cc1 | 19 | 6 | -15 | 6 | 0.1 | -23
Cc1cc(C)c2nc(SCC(=O)NNC(=O)c3ccco3)c(C)cc2c1 | -1 | 0 | 1 | -7 | -0.9 | 5
Cc1[nH]c2ccccc2c1/C=C/C(=O)c1ccccc1 | -21 | 9 | -5 | -5 | 9.8 | 23
COc1ccc(CNC(=O)COC(=O)C2CC2C)cc1OC (stereo not drawn) | -11 | 0 | -2 | 5 | -0.3 | 11
COc1cc(C(=O)N/N=C(\C)Cn2nc([N+](=O)[O-])cc2C)ccc1O | -14 | 9 | -4 | 13 | 0.0 | 1
CCN(CC)S(=O)(=O)c1ccc(Cl)c(NC(=O)COC(=O)c2cccn2C)c1 | 14 | -6 | 11 | 5 | 2.1 | -5
Cc1cccc(C)c1NC(=O)CN(C)CC(=O)c1c(N)n(Cc2ccccc2)c(=O)n(C)c1=O | -2 | 9 | 6 | -5 | 1.9 | -14
CN(C)CCCNC(=S)N(Cc1cccs1)Cc1cc2cc3c(cc2[nH]c1=O)OCCO3 | -17 | 12 | 16 | 22 | 0.4 | -2
CC1CC(NC(=O)/C=C/C(=O)O)CC(C)(C)C1 (stereo not drawn) | -5 | 9 | 13 | -6 | 0.7 | -3

4 of the compounds above, with each value named.
Cc1cccc(C)c1NC(=O)CN(C)CC(=O)c1c(N)n(Cc2ccccc2)c(=O)n(C)c1=O
  D2 potentiator: -2 | Six1-Eya2 blk: 9 | TRPV1 PAM: 6 | TRPML1 inh: -5 | TRPML1 ag: 1.9 | CtBP-E1A blk: -14

OC(CNCc1ccc2c(c1)OCO2)COc1ccc(F)cc1 (stereo not drawn)
  D2 potentiator: -26 | Six1-Eya2 blk: 0 | TRPV1 PAM: ? | TRPML1 inh: -6 | TRPML1 ag: -0.5 | CtBP-E1A blk: nt

CC1CC(NC(=O)/C=C/C(=O)O)CC(C)(C)C1 (stereo not drawn)
  D2 potentiator: -5 | Six1-Eya2 blk: 9 | TRPV1 PAM: 13 | TRPML1 inh: -6 | TRPML1 ag: 0.7 | CtBP-E1A blk: -3

CCN(CC)S(=O)(=O)c1ccc(Cl)c(NC(=O)COC(=O)c2cccn2C)c1
  D2 potentiator: 14 | Six1-Eya2 blk: -6 | TRPV1 PAM: 11 | TRPML1 inh: 5 | TRPML1 ag: 2.1 | CtBP-E1A blk: -5

Screening results deposited in PubChem by National Center for Advancing Translational Sciences (NCATS).
